# High-throughput results: PubChem BioAssay, several laboratories
# PrP UTR inh = suppresses PrP 5' UTR mRNA reporter expression; cell-based PrP 5' UTR mRNA reporter, plate reader; inhibition, % (concentration not given with the values); hit rate 0.35% among 340,000; AID 488862;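 active = every replicate at 50% or more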;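 also: 0 = median of the neutral control wells; tested in H4 reporter cells; numbers are from one replicate; inactives centre near -14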
# ugtP null kill = compounds lethal to S. aureus RN4220 ugtP deletion mutant; OD600 growth, 16 h; some inactives read as strong as hits; growth inhibition, % (no concentration beside the values); hit rate 0.54% among 330,000; AID 1259309;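 active = z-score under -3 and OD600 up to 0.15 on both plates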;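 also: plate controls were untreated wells for no effect and antibiotic for full effect; wells of about 80 µL received 100 nL stock; the first replicate is given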
# Sa RN4220 lethal = S. aureus RN4220 growth inhibition | OD600, 16 h | inhibition, % (test concentration not listed) | hit rate 0.33% among 330,000 | AID 1259311;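 active = z-score of -3 or lower and OD600 up to 0.18 on both plates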;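 also: plate controls were untreated cells for no effect and reference antibiotic for full effect; stock transfer was 100 nL into about 80 µL; one replicate is shown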
# BJeLR lethal = kills HRASV12-expressing BJeLR cells. BJeLR (HRASV12) viability, CellTiter-Glo ATP luminescence, 48 h; reference of the scale not given here. inhibition, % (no concentration beside the values). hit rate 0.17% among 300,000. AID 1554;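 active = replicate mean above 50%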;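 also: 50 nL library stock added to about 25 µL; numbers are from one replicate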
# Autofluor counter = counter-screen for toxin protease inhibitors: compound fluorescence; compound autofluorescence counterscreen, microsphere flow cytometry; stronger effect = higher value; fluorescence intensity (no concentration beside the values); hit rate 3.1% among 360,000;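 active = at least 3 SD above the mean of all compounds, about 16000 in these data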;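 also: 100 nL of 1 mM stock went into each well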
# Mtb hypoxia inh = inhibitors of hypoxia-regulated fluorescent reporter in Mycobacterium tuberculosis; M. tuberculosis hypoxia-regulated fluorescent reporter, fluorescence; hit rate 0.1% among 300,000; fluorescence inhibition, % (concentration not given with the values);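 active = 35 to 45% if threefold the growth effect, above 45% if 1.5-fold the growth effect; inactive = the rest, general growth blockers included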;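 also: wells of about 50 µL received 100 nL stock; 0% = vehicle wells and 100% = reference inhibitor wells; whole bacteria with a GFP reporter of the hypoxia response; strong numbers were not always called active; many hits fall short of the cut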
# Mtb hypoxia inh growth = second read-out of Mtb hypoxia inh, no call of its own (marks repeat the call); growth inhibition, %; measured here: M. tuberculosis growth (absorbance);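 0% = vehicle and 100% = reference antibiotic; read after six days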
# Active calls of the source: *; . = no result given. This is a random part of the collection. Share with any hit: about 4%.
SMILES,PrP UTR inh,ugtP null kill,Sa RN4220 lethal,BJeLR lethal,Autofluor counter,Mtb hypoxia inh,Mtb hypoxia inh growth
Cc1c(C(=O)C(=O)N2CCOCC2)c2ccccc2n1Cc1ccccc1,3,4,6.3,1,5369,5,2
Cc1cnc(NC(=O)CCNC(=O)c2ccccc2Cl)s1,-12,11,6.7,4,5122,-6,0
COc1ccc2c(c1OC)C(=O)OC2CC(=O)c1ccc2c(c1)OCO2 (centres undefined),-10,3,1.4,5,16170*,2,1
O=C(Nc1nc2cc3c(cc2s1)OCO3)c1ccc(N2C(=O)CCC2=O)cc1,-23,7,4.2,-3,4159,10,6
CCC1COC(c2cccn2Cc2ccccc2Cl)=N1 (centres undefined),-7,20,1.5,1,2230,12,-3
Cc1nc2cc(NC(=O)NCc3ccccc3)ccc2o1,-14,6,7.5,4,4100,5,11
CCOC(=O)C[N+](CC)(CC)CC#Cc1ccccc1,-7,9,4.6,-9,2609,1,-5
COc1cc(C=NNS(=O)(=O)c2ccc(C)cc2)ccc1OCc1cccc(C(=O)O)c1,.,-4,9.8,.,.,2,-13
CC(=O)c1cc(C(=O)N2CCc3c([nH]c4ccccc34)C2C2CCCCC2)[nH]n1 (centres undefined),-30,4,2.1,2,4597,-3,-4
O=C(c1nc2nc(-c3cccs3)cc(C(F)(F)F)n2n1)N1CCN(Cc2ccccc2)CC1,2,9,19,-7,2912,-1,-1
CN(C)c1ccc(CN(C(=O)c2ccco2)C2CCS(=O)(=O)C2)cc1 (centres undefined),-11,-3,4.9,-8,4022,.,.
COc1cc(C(=O)NNC(=S)NC(=O)c2ccc(F)cc2)cc(OC)c1OC,-10,5,28,2,4312,-1,0
Cc1ccc(NC(=O)CN2CCCC2)c2c1CC(C)(C)O2,-10,14,4.4,-10,2367,18,18
COc1ccc(CNC(=O)C2CSC(c3ccc(OC)cc3)N2C(C)=O)cc1 (centres undefined),-14,6,-2.9,6,5842,.,.
OCC1OC(c2ccccc2)OC2COC(c3ccccc3)OC12 (centres undefined),-20,6,-1.4,.,3348,4,10
COc1ccccc1OCc1nnc(SCC(=O)Nc2nnc(C3CC3)s2)n1C,-20,7,1.4,-8,4419,3,6
CC(=O)Nc1ccc(NC(=O)C(C)Oc2ccc(C)nc2[N+](=O)[O-])cc1 (centres undefined),-12,6,8.7,.,8817,5,5
C=C(C)C(=O)Oc1ccc(N2C(=O)[C@@H]3C4C=CC(C4)[C@@H]3C2=O)cc1,4,-1,-4.9,-12,3077,5,-1
CC(=O)c1cn(CCOc2ccccc2C)c2ccccc12,-11,-10,1.6,11,3357,1,4
O=C(Nc1cccnc1)C1COc2ccccc2O1 (centres undefined),-12,0,-6.7,10,3704,-1,0
O=C(O)CCC(=O)N1N=C(c2ccccc2)CC1c1ccc(Br)cc1 (centres undefined),-46,-14,-3.8,-13,3887,-4,-4
CCC1S/C(=C(\C#N)C(=O)NCc2ccco2)N(c2ccc(F)cc2)C1=O (centres undefined),-9,-6,-2.0,-2,2447,.,.
CCOC(=O)c1cc2sc(C)cc2n1CC(=O)Nc1cccc(C)c1C,-39,15,1.3,-5,13165,16,5
O=C(Cc1cccc(NC(=O)C2CCN(C(=O)c3ccccc3)CC2)c1)Nc1cccc(C(=O)N2CCCC2)c1,-8,5,-6.2,.,3198,0,-4
O=C(CN1CCN(Cc2ccc(Cl)cc2)C1=O)NCCN1CCCC1,-28,4,5.4,8,7299,2,3
CCN1CCCC1CNCc1ccc(Cl)cc1Cl (centres undefined),4,10,-0.6,-2,8471,12,3
COc1ccc(C(=O)Nc2ccc3nc(C)c(C)nc3c2)cc1,-19,3,3.5,-2,3841,11,10
O=C(NCc1ccccc1)NC1(C(=O)N2CCCC2)CCCCC1,-3,2,-1.8,.,3975,4,5
O=C(COC(=O)/C=C/c1ccc(F)cc1)NCc1ccco1,-9,4,3.2,3,4149,6,0
O=C(CCc1nnc(CCCc2ccccc2)o1)NC(C1CC1)C1CC1,-111,4,2.2,0,2008,3,-2

# Some of the entries above in a different format.
Compound	PrP UTR inh	ugtP null kill	Sa RN4220 lethal	BJeLR lethal	Autofluor counter	Mtb hypoxia inh	Mtb hypoxia inh growth
COc1ccccc1OCc1nnc(SCC(=O)Nc2nnc(C3CC3)s2)n1C	-20	7	1.4	-8	4419	3	6
CC(=O)Nc1ccc(NC(=O)C(C)Oc2ccc(C)nc2[N+](=O)[O-])cc1 (centres undefined)	-12	6	8.7	.	8817	5	5
C=C(C)C(=O)Oc1ccc(N2C(=O)[C@@H]3C4C=CC(C4)[C@@H]3C2=O)cc1	4	-1	-4.9	-12	3077	5	-1
CC(=O)c1cn(CCOc2ccccc2C)c2ccccc12	-11	-10	1.6	11	3357	1	4
O=C(Nc1cccnc1)C1COc2ccccc2O1 (centres undefined)	-12	0	-6.7	10	3704	-1	0
O=C(O)CCC(=O)N1N=C(c2ccccc2)CC1c1ccc(Br)cc1 (centres undefined)	-46	-14	-3.8	-13	3887	-4	-4

# Additional records.
SMILES,PrP UTR inh,ugtP null kill,Sa RN4220 lethal,BJeLR lethal,Autofluor counter,Mtb hypoxia inh,Mtb hypoxia inh growth
Cc1ccc(S(=O)(=O)c2nc(S(C)(=O)=O)sc2N2CCN(C)CC2)cc1,8,2,-2.5,-3,4948,-1,-1
O=C(CCl)Nc1c2c(nn1-c1ccccc1)CSC2,-36,.,.,7,5070,.,.
Cn1ccnc1C(=O)c1cccc([N+](=O)[O-])c1,-20,-2,5.5,0,9091,5,4
CC(=O)Nc1ccc(S(=O)(=O)N2CCN(Cc3cccs3)CC2)cc1,-6,2,6.3,-10,4321,2,-3
O=C(c1ccc(F)cc1)N1CCC(C(=O)N2CCN(S(=O)(=O)c3cccc(Cl)c3)CC2)CC1,-13,2,0.5,-9,5327,-5,6
COc1ccc(C2/C=C\CN(S(=O)(=O)c3ccc(C)cc3)CC(=O)N2Cc2cccc(F)c2)cc1 (centres undefined),-14,13,9.3,.,2961,1,2
CC(C)CCOc1ccccc1C(N)=O,-34,-2,1.7,8,2574,-8,-6
COCC(=O)N1CCC(Oc2ccc(C(=O)NCc3cc(C)n(C)n3)cc2)CC1,-21,-1,-0.4,3,5904,0,-4
CC(C)CNC(=O)/C=C/C=C/CCCC/C=C/c1ccc2c(c1)OCO2,-8,-3,-13,.,4047,11,-3
O=C(Cn1nc(-c2ccc(Cl)cc2)c2ccccc2c1=O)NCC1CCCO1 (centres undefined),-32,-1,2.6,-14,4555,12,5
O=C(CNC(=O)c1ccccc1)NN=C/C=C/c1ccccc1,.,6,-4.1,.,.,-7,-5
COc1ccc2c(C(=O)CN3CC(C)OC(C)C3)c[nH]c2c1 (centres undefined),-24,-2,-6.6,-7,2660,11,6
Cc1ccc(S(=O)(=O)NCCC(=O)N2CCCCCC2)cc1,-17,5,1.8,-5,6866,3,12
O=C(NCCCn1ccnc1)C(=O)NCC1OCCN1S(=O)(=O)c1cc(F)ccc1F (centres undefined),-4,7,2.1,-1,3564,-10,4
Cc1ccc(C(=O)ON=Cc2ccc3c(c2)OCO3)cc1,.,3,8.2,.,.,2,12

# Some of the entries above, set out differently:
# Values in the order – PrP UTR inh, ugtP null kill, Sa RN4220 lethal, BJeLR lethal, Autofluor counter, Mtb hypoxia inh, Mtb hypoxia inh growth
- COCC(=O)N1CCC(Oc2ccc(C(=O)NCc3cc(C)n(C)n3)cc2)CC1
 : -21, -1, -0.4, 3, 5904, 0, -4
- CC(C)CNC(=O)/C=C/C=C/CCCC/C=C/c1ccc2c(c1)OCO2
 : -8, -3, -13, ., 4047, 11, -3

# (cont.)
SMILES,PrP UTR inh,ugtP null kill,Sa RN4220 lethal,BJeLR lethal,Autofluor counter,Mtb hypoxia inh,Mtb hypoxia inh growth
O=C(NCc1cccs1)Nc1ccc(Cl)cc1,-25,-1,-3.9,0,4878,.,.
NC(=O)CC(NC(=O)Cc1cccc2ccccc12)c1ccc(NC2CCCCC2)c([N+](=O)[O-])c1 (centres undefined),-5,.,.,1,2820,.,.
COc1ccc(S(=O)(=O)N2CCN(C(=O)Nc3ccccc3OC)CC2)cc1,-14,-1,-3.0,8,6058,-2,5
N#Cc1nn(-c2ccccc2)nc1N1CCCCC1,-1,9,11,3,2119,.,.
CCOc1ccc(CCNC(=O)C2CCN(S(=O)(=O)N3CCC(C)CC3)CC2)cc1OCC,-8,4,1.7,-5,8869,12,2
O=C(NCCN1CCCCCC1)c1ccc(CS(=O)(=O)c2ccc(Br)cc2)o1,-10,-6,0.3,4,8129,.,.
Nn1c(SCC(=O)NC(=O)NCc2ccco2)nnc1-c1ccc(OC(F)F)cc1,-8,4,1.7,0,2759,.,.
CCc1c(C)sc(NC(=O)c2cnn3cccnc23)c1C#N,-19,5,2.2,-1,11137,6,9
CC(C)CNC(=O)c1nc(-c2ccccc2)n(-c2ccccc2)n1,-16,1,4.9,1,3050,14,-2
COc1ccccc1OC1OC2COC(c3ccco3)OC2C(O)C1NC(C)=O (centres undefined),-23,4,1.5,17,2432,2,4
COc1cccc(CN2CCC(C(=O)N3CCN(c4ccccc4F)CC3)CC2)c1,-10,2,1.6,4,2414,15,12
Cc1ccc(S(=O)(=O)N2CCCC(C(=O)NCCCN3CCCCC3C)C2)cc1 (centres undefined),-8,-2,-4.7,-9,25210*,2,5
CCNC(=O)NC(=O)COC(=O)c1cccc(S(=O)(=O)N2CC3(C)CC2CC(C)(C)C3)c1 (centres undefined),3,2,3.6,-2,6096,2,4
Cc1ccc(C(=O)COc2ccc3ccc(=O)oc3c2)cc1,-2,4,6.4,11,3965,11,-3
CC(C)=CCC/C(C)=C/C=NNC(=O)c1cccc([N+](=O)[O-])c1,.,1,4.6,.,.,3,17
CN(C)CCCn1c(SCC(=O)Nc2nccs2)nnc1-c1ccncc1,-2,-3,-1.5,-2,3020,2,-3
Cc1ccccc1NC(=O)C1CCCN1S(=O)(=O)c1ccc2c(c1)n(C)c(=O)c(=O)n2C (centres undefined),-4,-15,2.0,-14,4181,-8,4
CC1(C)CC(NC(=O)Cc2ccccc2[N+](=O)[O-])CC(C)(C)N1,-13,8,7.9,-5,2412,9,-3
C/C(N)=C(/C#N)C(=O)COC(=O)C1CSC2(c3ccc(F)cc3)CCC(=O)N12 (centres undefined),-12,-2,0.2,-4,6299,-6,5
COc1ccc(-c2[nH]ncc2-c2cnc(C)s2)c(O)c1,-19,4,3.3,1,10900,7,7
CCOCC(=O)Nc1cc(C(=O)NCCC(C)C)ccc1Cl,.,-2,9.2,4,.,10,2
Cc1nn(C)c(C)c1NC(=O)CSc1nc(Cc2ccccc2)nc2c1cnn2-c1ccccc1,-23,-5,-0.4,-5,10246,-9,9
CCN(CC)C(=O)c1ccccc1NC(=O)c1ccccc1,-8,1,4.4,1,3789,6,6
O=C(CSc1nnnn1C1CCCCC1)N1CCCC1,-21,2,1.6,4,5717,3,7
CCN(CC)S(=O)(=O)c1ccc2c(c1)NC(=O)C1CCCN21 (centres undefined),-13,12,3.6,11,3756,-9,4
COc1cccc(N2CCN(C(=O)c3ccc4nc(N5CCC(C)CC5)sc4c3)CC2)c1,.,12,-1.1,-13,.,-1,14
C=CCNC(=S)Nc1sc2c(c1C(=O)OCC)CC(C)(CC)OC2 (centres undefined),-37,2,7.5,7,2230,-1,6
Cc1cc(C)c(NC(=O)Nc2ccccc2C)c(Cl)c1,-14,11,2.9,-3,4302,1,7
COC(=O)C1CC1C(NC(=O)OCc1ccccc1)c1ccccc1 (centres undefined),.,5,3.0,.,.,4,4
O=C1C2CCCN2C(c2cccnc2)N1c1ccc(Cl)c(Cl)c1 (centres undefined),0,8,3.9,7,6544,10,2
COc1ccc(C2c3ccc4ccccc4c3Oc3ncn4nc(Cc5ccccc5)nc4c32)cc1OC (centres undefined),-11,3,0.9,-11,2988,-16,15
O=C(NCC1CCN(Cc2ccc(F)cc2)CC1)C1CCCN(c2ncnc3c2nc2n3CCCCC2)C1 (centres undefined),-9,-8,-1.1,-4,6888,-15,3
CCC1(C)COC2(OC1)C(=O)Nc1ccccc12 (centres undefined),-14,-4,0.7,6,20257*,-10,2
O=C(CCCNC(=O)/C(=C\c1ccccc1F)NC(=O)c1ccccc1)OCc1ccccc1,-23,19,6.8,13,8372,5,7
O=C(NC1CCCCCCC1)c1ccc(Br)cc1,.,7,2.1,-14,4739,.,.
COc1cccc(NC2=C(Cl)C(=O)OC2OC(=O)c2ccco2)c1 (centres undefined),-20,-6,0.7,-1,5342,11,21
CCOc1ccccc1NC(=O)COC(=O)CSc1ccc(Cl)cc1,-10,8,4.8,-8,2746,7,7
COc1ccccc1NC(=O)CSc1ccc2nnc(-c3ccc(C)cc3)n2n1,-9,17,7.9,-3,4312,8,5
